Assay outcomes as filed in PubChem BioAssay.
KCNQ2 block: KCNQ2 potassium channel inhibitors, primary screen, cell-based, CHO-K1, FluxOR thallium flux, B-score (AID 2156). O88943. 20 min; active compounds read low; only compounds with negative scores are shown here; some inactives read as strong as hits. B-score at 10 µM. 310,000 tested, 1.1% active;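 active = fluorescence ratio B-score at most minus 3 library SDs, with starting brightness B-score within 2 library SDs, cut at about -5.5 in these data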
Target sequence (O88943 whole entry, looked up): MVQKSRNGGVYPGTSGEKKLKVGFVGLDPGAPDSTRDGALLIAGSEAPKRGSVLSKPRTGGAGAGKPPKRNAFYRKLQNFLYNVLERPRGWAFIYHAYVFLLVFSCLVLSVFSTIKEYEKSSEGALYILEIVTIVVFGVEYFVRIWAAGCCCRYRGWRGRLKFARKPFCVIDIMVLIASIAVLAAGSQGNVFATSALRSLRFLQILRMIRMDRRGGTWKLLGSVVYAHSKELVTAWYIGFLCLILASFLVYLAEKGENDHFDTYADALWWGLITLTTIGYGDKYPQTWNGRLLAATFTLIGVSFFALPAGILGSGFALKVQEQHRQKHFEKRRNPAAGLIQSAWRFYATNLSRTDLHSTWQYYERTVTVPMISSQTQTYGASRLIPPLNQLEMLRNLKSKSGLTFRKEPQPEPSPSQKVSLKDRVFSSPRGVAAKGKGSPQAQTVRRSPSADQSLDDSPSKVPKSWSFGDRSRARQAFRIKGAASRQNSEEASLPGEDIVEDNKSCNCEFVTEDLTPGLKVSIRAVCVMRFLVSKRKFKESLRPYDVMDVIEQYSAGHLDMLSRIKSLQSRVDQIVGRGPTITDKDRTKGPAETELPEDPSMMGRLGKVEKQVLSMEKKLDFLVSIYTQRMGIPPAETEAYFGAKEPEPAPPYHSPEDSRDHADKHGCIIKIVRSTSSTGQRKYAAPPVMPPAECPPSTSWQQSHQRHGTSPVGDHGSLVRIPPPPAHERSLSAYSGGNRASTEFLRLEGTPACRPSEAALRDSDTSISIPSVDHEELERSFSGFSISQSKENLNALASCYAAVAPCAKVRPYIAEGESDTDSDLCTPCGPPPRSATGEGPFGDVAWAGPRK
KCNQ2 block baseline: recorded beside KCNQ2 block, whose call it bears; B-score; measured here: initial fluorescence intensity artifact check;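 brightness before thallium and not channel activity; 0 = typical well and far values either way flag optical interference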
* marks the source's active call; other numbers are inactive results; i = inactive. An excerpt (hit frequency here may not be typical).

Preview, seven compounds:
Under each structure – KCNQ2 block	KCNQ2 block baseline
> CCC(C)NC(=O)c1ccc([N+](=O)[O-])c(Cl)c1 (stereo not drawn)
    i	1.5
> O=S1(=O)[C@H]2C[C@@H]3C=C[C@@]2(CN1Cc1cccc(C(F)(F)F)c1)O3
    i	0.02
> CCOc1ccc(-n2nnnc2SCC(=O)c2ccccc2)cc1
    i	0.12
> CC(=O)c1cc(C#N)c(NCc2ccccc2)nc1C
    i	1.1
> O=C(NNC(=S)NC1CC2CCC1C2)c1ccc(Cl)cc1 (stereo not drawn)
    i	-0.39
> Cc1ccc(CCN2CC(C(=O)NCc3ccco3)CC2=O)cc1 (stereo not drawn)
    i	-1.9
> COc1ccc(Cc2nnc(SCC(=O)NCC3CCCO3)o2)cc1 (stereo not drawn)
    i	0.46

The list itself (from the top)
Under each structure – KCNQ2 block	KCNQ2 block baseline
> CCC(C)NC(=O)c1ccc([N+](=O)[O-])c(Cl)c1 (stereo not drawn)
    i	1.5
> O=S1(=O)[C@H]2C[C@@H]3C=C[C@@]2(CN1Cc1cccc(C(F)(F)F)c1)O3
    i	0.02
> CCOc1ccc(-n2nnnc2SCC(=O)c2ccccc2)cc1
    i	0.12
> CC(=O)c1cc(C#N)c(NCc2ccccc2)nc1C
    i	1.1
> O=C(NNC(=S)NC1CC2CCC1C2)c1ccc(Cl)cc1 (stereo not drawn)
    i	-0.39
> Cc1ccc(CCN2CC(C(=O)NCc3ccco3)CC2=O)cc1 (stereo not drawn)
    i	-1.9
> COc1ccc(Cc2nnc(SCC(=O)NCC3CCCO3)o2)cc1 (stereo not drawn)
    i	0.46
> COc1ccccc1OCC(=O)Nc1cccc(C(=O)N2CCOCC2)c1
    i	-0.64
> CC(C)CC1(C)NC(=O)N(CC(=O)Nc2cccc(S(=O)(=O)N(C)c3ccccc3)c2)C1=O (stereo not drawn)
    i	-0.15
> COC(=O)C1=CN(Cc2ccccc2)C=C(C(=O)OC)C1c1ccc(O)c(OC)c1
    i	0.06
> CN(C)C(CN=C1NS(=O)(=O)c2ccccc21)c1ccco1 (stereo not drawn)
    i	0.05
> CC1CCCCC1NC(=O)CSc1nncn1N (stereo not drawn)
    i	-0.63
> NC(=O)C[C@@H]1N[C@]2(C(=O)Nc3ccccc32)[C@@H]2C(=O)N(C3CCCCC3)C(=O)[C@H]12
    i	0.29
> O=C(O)C1CCN(S(=O)(=O)c2ccc(N3CCCC3C(=O)O)c([N+](=O)[O-])c2)CC1 (stereo not drawn)
    i	1.2
> Nc1nnc(SCC(=O)OCc2ccc(F)cc2)s1
    i	-0.19
> N#CC1=C2SCC(O)(c3ccccc3)N2C(=O)CC1c1ccccc1 (stereo not drawn)
    i	-1.5
> COc1ccc(CN(C)S(=O)(=O)c2nnc(NC(=O)c3ccc(C)cc3)s2)cc1OC
    i	1.3
> CCc1cc(SC#N)ccc1N
    i	-0.56
> CCOC(=O)c1ccc(NC(=S)N(CCCN2CCCC2)Cc2ccco2)cc1
    i	0.33
> O=C(COc1ccc([N+](=O)[O-])cc1)Nc1ccc(NC(=O)c2ccccc2)cc1
    i	-0.68
> CC(c1nc2ccccc2c(=O)[nH]1)N(C)c1ccc2ccccc2c1 (stereo not drawn)
    i	-0.03
> COc1ccc2oc(=Nc3cccc(F)c3)c(C(N)=O)cc2c1
    i	-0.18
> CCC(C)N(C(=O)COC(=O)c1cc([N+](=O)[O-])ccc1N)C1CCS(=O)(=O)C1 (stereo not drawn)
    i	-0.35
> O=C1[C@@H]2C(Cc3ccc(O)cc3)NC3(C(=O)Nc4ccc(F)cc43)[C@@H]2C(=O)N1c1ccccc1 (stereo partly drawn)
    i	-0.07
> COc1ccc(N2CCN(C3CCCCC3NS(=O)(=O)c3ccccc3)CC2)cc1 (stereo not drawn)
    i	-0.04
> COc1ccccc1NC(=O)C1Cc2ccccc2CN1C(=O)c1ccco1 (stereo not drawn)
    i	-1.7
> CC/C(Cc1ccccc1)=N/NC(=O)c1cccc(Br)c1
    i	-0.67
> Cc1nnc(SCc2ccccc2)n1N
    i	-1.6
> C/C(=N\NC(=O)C(c1ccccc1)c1ccccc1)c1ccc(O)cc1
    i	0.02
> O=C(Cc1ccccc1[N+](=O)[O-])NCc1ccccc1Cl
    i	-1.7

Following part.
Under each structure – KCNQ2 block	KCNQ2 block baseline
> CCCCN(CC)C(=O)C1CCCN(S(=O)(=O)c2cccc3nsnc23)C1 (stereo not drawn)
    i	-0.43
> Cc1nn(C(=O)c2ccco2)c(C)c1Sc1ccc(Br)cc1
    i	0.89
> O=C1CSCC(=O)N1c1ccccc1
    i	1.1
> CCCC(=O)Nc1ccc(N2CCN(C(=O)c3ccccc3C)CC2)cc1
    i	0.1
> O=C1Cc2ccccc2C(=O)N1OCc1ccc(Cl)cc1
    i	2
> O=C(c1ccccc1)N1CCN(C(=O)c2ccc3c(c2)OCCO3)CC1
    i	2.6
> COc1ccc(NC(=O)c2cc3sccc3n2Cc2ccc(F)cc2)cc1OC
    i	0.85
> CCC1=C(OC(=O)N(CC)CC)N2C(=O)OC(=NCCc3c[nH]c4ccccc34)[C@]2(Cc2ccccc2)[C@H]2C1=CC[C@H]1C(=O)N(c3ccccc3)C(=O)[C@H]12
    i	-0.09
> O=S(=O)(Cc1noc(-c2ccc(OC(F)(F)F)cc2)n1)c1ccc(F)cc1
    i	0.53
> CCOC(=O)c1[nH]c(C)c(C(=O)Nc2ccc(C)cc2C)c1C
    i	0.71
> CCOC(=O)Cc1csc(NS(=O)(=O)c2ccc3c4c(cccc24)C(=O)N3CC)n1
    i	1
> Nc1nnnn1/N=C/C(Br)=C/c1ccccc1
    i	-2.6
> O=C(N1CCN(c2ccccc2F)CC1)C1(S(=O)(=O)c2ccc(Cl)cc2)CC1
    i	0.01
> CN(CC(=O)Nc1ccc2c(c1)OCCO2)S(=O)(=O)c1ccc(F)cc1
    i	-0.38
> CC(C)(C#CCN1CCCCC1)OCCOC(c1ccccc1)c1ccccc1
    -6.1*	2.5*
> Cc1ccc(-c2cc(C(=O)NCCN3CCOCC3)no2)cc1
    i	-1.3
> Cc1cc(C(F)F)n2ncc(C(=O)NCCc3ccccc3Cl)c2n1
    i	0.89
> O=C(Cc1ccccc1)NCC(=O)N1CCN(c2ccccc2F)CC1
    i	0.93
> COCCn1c(=O)[nH]c2cc(C(=O)N3CCN(c4ccc(OC)cc4)CC3)ccc2c1=O
    i	-0.8
> CCS(=O)(=O)N1CCC(c2nc(-c3ccc(C)cc3)no2)CC1
    i	-0.31
> CCC1=[N+](C)c2cccc3cccc(c23)N1C
    i	-1
> O=C1CC(N2CCN(c3ccc(S(=O)(=O)N4CCOCC4)cc3)CC2)C(=O)N1Cc1ccccc1 (stereo not drawn)
    i	-0.03
> CCOc1ccc(S(=O)(=O)N(C)c2ccc(OCC(=O)N3c4ccc(C)cc4C4CN(C)CCC43)cc2)cc1 (stereo not drawn)
    i	1.8
> Cc1ccc(NC(=S)Nc2ccccn2)cc1C
    i	1.7
> COC(=O)C1=C(C)N(CCCCCC(=O)O)C(=O)NC1c1ccccc1 (stereo not drawn)
    i	-0.02
> COc1cccc(/C=N/n2c(N)c(S(=O)(=O)c3cccs3)c3nc4ccccc4nc32)c1OC
    i	0.12
> O=C(Cc1ccc(F)cc1)OCn1nnc2ccccc2c1=O
    i	0.04
> COc1cc(CC(=O)OC2CCOC2=O)cc(OC)c1OC (stereo not drawn)
    i	-0.28
> CCC(C)(C)NC(=O)C(c1ccccc1Cl)N(C(=O)CCC(=O)Nc1cc(C)on1)C1CC1 (stereo not drawn)
    i	-1.1
> CCc1ccccc1N1CSC2=C(C#N)C(c3cc(OC)c(OC)cc3OC)CC(=O)N2C1 (stereo not drawn)
    i	-2.5

Four structures already listed, arranged by heavy-atom count, ascending:
Under each structure – KCNQ2 block	KCNQ2 block baseline
> Cc1cc(C(F)F)n2ncc(C(=O)NCCc3ccccc3Cl)c2n1
    i	0.89
> CCCC(=O)Nc1ccc(N2CCN(C(=O)c3ccccc3C)CC2)cc1
    i	0.1
> COCCn1c(=O)[nH]c2cc(C(=O)N3CCN(c4ccc(OC)cc4)CC3)ccc2c1=O
    i	-0.8
> O=C1CC(N2CCN(c3ccc(S(=O)(=O)N4CCOCC4)cc3)CC2)C(=O)N1Cc1ccccc1 (stereo not drawn)
    i	-0.03

Continuation.
Under each structure – KCNQ2 block	KCNQ2 block baseline
> CCCN1CCN(C(=S)Nc2sc(CC)cc2C(=O)OC)CC1
    i	-1.3
> C=C1CCC[C@]2(C)C[C@H]3OC(=O)C(CN4CCCCC4CO)[C@H]3CC12 (stereo partly drawn)
    i	0.02
> CCC(C)n1ncn(-c2ccc(N3CCN(c4ccc(OC)cc4)CC3)cc2)c1=O (stereo not drawn)
    i	0.62
> Cc1ccc2c(c1)N(C(=O)CCC(=O)NCc1cccc(Br)c1)CC(C)O2 (stereo not drawn)
    -7*	1.2*
> CCc1noc(C)c1C(=O)Nc1cc(S(=O)(=O)N(CC)CC)ccc1N1CCCC1
    i	-2
> COc1ccccc1NC(=O)c1nn(-c2ccc(OC(F)(F)F)cc2)ccc1=O
    i	1.6
> CCOc1ccccc1CN(Cc1ccco1)S(=O)(=O)c1ccc(-n2cnnn2)c(OC)c1
    i	0.11
> CC(C)(C)OC(=O)CC1(C#N)c2ccccc2C(Br)=CN1C(=O)c1ccccc1 (stereo not drawn)
    i	0.68
> S=C(NCc1ccco1)N1CCN(c2ccccc2Cl)CC1
    -5.8*	1.1*
> O=C(COc1ccccc1C(=O)c1cnn(-c2ccccc2)c1)Nc1ccccc1
    i	0.14
> C=C1SC(Nc2c(C)cc(C)cc2C)=NC12CCCCC2
    -7.6*	0.47*
> COc1cc(C2C(C#N)=C(N)Oc3n[nH]c(C)c32)ccc1OC(=O)c1ccccc1 (stereo not drawn)
    i	-2.1
> CN(C)S(=O)(=O)c1ccc(Cl)c(NC(=O)CN2CCN(c3ccccn3)CC2)c1
    i	0.36
> C/C(=N\N=c1/sc2ccccc2n1C)c1ccc(N2CCOCC2)cc1
    i	2.1
> COc1ccc(/C=C/c2nc3ccccc3c(=O)n2-c2cccc(C(=O)O)c2)cc1
    i	-0.6
> CN1C(=O)c2ccccc2C(C(=O)NCCCN2CCCC2=O)C1c1c[nH]c2ccccc12 (stereo not drawn)
    i	0.8
> COc1ccc(C(=O)COC(=O)CCN2C(=O)[C@@H]3[C@H](C2=O)[C@@H]2C[C@H]3C(Br)C2Br)cc1 (stereo partly drawn)
    i	0.9
> Cc1ccc(C(=O)N(Cc2nc(-c3ccc(C)cc3)no2)C(C)C)cc1
    i	-0.99
> CCc1ccc(NC(=O)CSc2ccc(-c3sc(C)nc3C)nn2)cc1
    i	-1.3
> O=C1S/C(=C\c2ccc(O)c([N+](=O)[O-])c2)C(=O)N1c1ccccc1Cl
    i	-1.9
> CCOCCCNC(=O)C1CCC(CNS(=O)(=O)c2ccc(F)cc2)CC1 (stereo not drawn)
    i	-0.17
> Cc1ccc(-c2nnc3sc(CCc4ccccc4)nn23)cc1
    i	0.99
> COCCN(CCOC)C(=O)c1ccc(SCc2ccc(C)cc2)c([N+](=O)[O-])c1
    i	0.32
> CCOC(=O)c1c(C)[nH]c(C)c1C(=O)COC(=O)c1cccc(S(=O)(=O)NC)c1
    i	-0.57
> O=C(CNC(=O)c1ccco1)OCc1ccc(C(=O)Oc2ccccc2)cc1
    i	-0.17
> COCCn1cc(C(=O)N2CCC(C)CC2)c2c3ccccc3n(C)c2c1=O
    -5.7*	-1.3*
> CC(=O)OC1CC(C)(C)N(OC(=O)c2ccccc2)C(C)(C)C1
    i	1.8
> Cc1nc(SCN2C(=O)c3ccccc3C2=O)n[nH]1
    i	0.05
> CCC(C)NC(=O)c1cc(Sc2nnc(C)s2)nc2ccccc12 (stereo not drawn)
    i	0.12
> Cc1ccc(SCc2nc3ccccc3[nH]2)cc1
    i	2.1

More records follow.
Under each structure – KCNQ2 block	KCNQ2 block baseline
> Cc1ccc(C(=O)Nc2ccccc2C(=O)N2CCCC2)cc1[N+](=O)[O-]
    i	-1.9
> CCOC(=O)C1CCN(S(=O)(=O)c2cc3c4c(c2)C(C)C(=O)N4CCC3)CC1 (stereo not drawn)
    i	-0.46
> O=C(O)CCCC(=O)Nc1ccc2c(c1)oc1ccccc12
    i	0.99
> O=c1c2[nH]c3ccc(F)cc3c2ncn1CC1CCCO1 (stereo not drawn)
    i	0.91
> CN(C)CCCNc1cc(C(C)(C)C)nc2c(-c3ccccc3)cnn12
    i	-0.04
> Cc1cc(S(=O)(=O)N2CCCCC2)ccc1OCC(=O)N1CCOCC1
    i	1.7
> CCCc1nc(-c2cc3cc(C)ccc3[nH]c2=O)no1
    i	0.07
> Cc1ccc(/C(O)=C2/C(=O)C(=O)N(Cc3ccco3)C2c2cccs2)cc1 (stereo not drawn)
    i	-1.2
> CCc1nc2ccc(C(=O)NCCc3ccc(OC)cc3)cc2nc1CC
    i	-0.19
> C=CCN1CN(S(=O)(=O)c2cccc(Cl)c2)c2nc3ccccc3nc21
    i	-0.7
> CC(Oc1ccc2ccccc2c1)C(=O)NNC(=S)NC(=O)c1ccco1 (stereo not drawn)
    i	-0.37
> COc1ccc(CSc2nc(C)cc(C)c2C#N)cc1
    i	0.5
> Cc1c(S(=O)(=O)N2CC(C)CC(C)C2)c(=O)n(C)c(=O)n1C (stereo not drawn)
    i	0.27
> Cc1cc(C)c2c(CC(=O)NC(C)C)coc2c1
    i	-0.89
> CCN(CC)c1ccc(/C=N/NC(=O)CNC(=O)c2cccnc2)cc1
    i	-1.5
> CSc1ccccc1NC(=O)COC(=O)c1ccccc1Cc1ccccc1
    i	-1.7
> Cc1[nH]c(C)c(S(=O)(=O)N2CCN(c3cccc(C(F)(F)F)c3)CC2)c1C(=O)N1CCCCC1
    i	0.16
> O=C(C1=C[C@H](C2CCCCC2)C[C@H](OCc2ccc(CO)cc2)O1)N1CCN(Cc2ccccc2)CC1
    -6.7*	0.01*
> Cc1ccc(S(=O)(=O)NCCCN(C)C)cc1
    i	2.1
> COC(=O)C1C(O)CCC2CN3CCc4c([nH]c5ccccc45)C3CC21 (stereo not drawn)
    i	-2.3
> CCc1nc2ccccc2c2nc3ccccc3n12
    i	1.1
